AmpC inh no det: AmpC beta-lactamase inhibition, detergent-free assay | hit rate 1.8% among 71,000 | Potency, µM (top dose mostly 28.7 µM), inactives show at the top dose activity change, negative = inhibition | AmpC nitrocefin hydrolysis, absorbance 480 nm, no detergent; potencies from a single point are estimates | AID 585; active = falling curve, for most hits resting on a single point; inconclusive = weak or doubtful change; inactive = flat or rising curve; further: % of control where 0% means no effect; about half of the hits show no inhibition at the top dose; a quarter of the inactives give rising signals
Target sequence (P00811 whole entry, looked up): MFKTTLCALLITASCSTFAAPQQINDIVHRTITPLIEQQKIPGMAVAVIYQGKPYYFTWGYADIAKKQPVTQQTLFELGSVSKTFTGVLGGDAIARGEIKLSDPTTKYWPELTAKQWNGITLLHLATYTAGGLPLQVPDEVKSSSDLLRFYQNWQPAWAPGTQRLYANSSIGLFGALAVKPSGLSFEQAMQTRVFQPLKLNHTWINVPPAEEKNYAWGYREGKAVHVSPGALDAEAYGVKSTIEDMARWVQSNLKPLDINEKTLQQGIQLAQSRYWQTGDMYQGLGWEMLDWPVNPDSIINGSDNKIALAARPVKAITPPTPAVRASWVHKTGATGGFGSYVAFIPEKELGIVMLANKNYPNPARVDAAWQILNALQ
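AmpC, 20 mM phosphate pH 7.0; 15 min cpd preinc, RT; start with nitrocefin (800 uM stock); A480 kinetic read, 20 s intervals, 4 min. No-enzyme wells = negative control.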
* marks the source's active call; other numbers are inactive results; ? = inconclusive; & = joins results of further samples; [ ] = another dose, or the depositor's remark. Potency means the concentration at half of the fitted maximal effect. Some of the compounds tested; rates above refer to the full screens.

SMILES | AmpC inh no det
CCC(=O)N[C@@H]1CCc2cccc(OC)c2C1 | 13.4%
O=C(O)c1ccc2c(c1C(=O)O)C(=O)OC2(c1ccc(O)cc1)c1ccc(O)cc1 | -7.8%[5.75 µM]
Cn1nc(OCCOc2ccccc2)ccc1=O | 12.9%
CCc1ccc(NC(=O)CC2NCCNC2=O)cc1 (stereo unspecified) | 7.4%
CCOc1ccccc1-n1c(O)c(C=NCCCN(CC)CC)c(=O)[nH]c1=O | -15.4%
CC(C)N(Cc1nc(-c2ccc(Cl)cc2)no1)C(=O)CCCN1C(=O)c2ccccc2C1=O | 116.7%
Cc1ccc(CNC(=O)CCCn2c(=O)c3ccccc3n(CC(=O)NC3CCCC3)c2=O)cc1 | 19.8%
Cc1oc(C(=O)O)cc1COc1ccc2c3c(c(=O)oc2c1C)CCCC3 | -5.1%
CC(C)C[C@H](NC(=O)Nc1ccc(S(N)(=O)=O)cc1)C(=O)O | 0.1%
COC(=O)C1=C(N)Oc2cc(C)n(Cc3ccco3)c(=O)c2C1c1cccc(Cl)c1 (stereo unspecified) | 14.7%
Cc1nc2ccccn2c1C(=O)NCc1cccnc1 | -22.9%
O=C1CSC(c2cn(-c3ccccc3)nc2-c2ccc3c(c2)OCCO3)N1CCN1CCOCC1 (stereo unspecified) | 161.2%
C(=N/Nc1ccccn1)/c1cccnc1 | 9.2%[5.75 µM]
N#CCCSc1ncnc2c1oc1ccccc12 | 11.6%
Cc1nnc(OCc2nc3ccccc3n2C)c2ccccc12 | 47.4%
CCCc1c(O)nc(SCCN(CCC)CCC)[nH]c1=O | -8.7%
CCOC(=O)c1cnn(-c2cccc(Cl)c2)c1N | -7.9%
CCC(Sc1nc2cc3c(cc2c(=O)n1Cc1ccco1)OCO3)C(=O)Nc1ccccc1OC (stereo unspecified) | 2.7%
CC(=O)c1c(NCc2ccccc2)nc(=O)n(-c2ccccc2)c1C | 2.7%
Cc1nc(SCC(=O)Nc2cc(C)on2)c2c(=O)n(C)c(=O)n(C)c2n1 | -7.2%
COc1cccc(C(=O)Cn2c(N3CCOCC3)nc3c2c(=O)n(C)c(=O)n3C)c1 | 27.6%
O=C1CCNc2cc3ccccc3cc21 | -1.8%
NCCCCC(=O)O | -1.9%
CCn1c(-c2ccco2)nc2ccccc21 | -8.4%
CCCCOCCCNC(=O)c1ccc2c(c1)OCO2 | 4.4%
N#Cc1cc2cc3c(cc2nc1N1CCCCC1)OCCO3 | 8.5%
COC(=O)Cn1nc(-c2ccc(C)c(S(=O)(=O)N(C)C)c2)c2ccccc2c1=O | 23.8%
CC(C)C(NC(=O)OCc1ccccc1)C(=O)OCC(=O)NCc1ccco1 (stereo unspecified) | 33.3%
c1ccc(-c2nc(NCc3cccnc3)c3oc4ccccc4c3n2)cc1 | 56.2%
Cc1ccc(C(=O)Nc2ccc3c(c2)nc2n3CCSC2)cc1 | -1.9%
Cc1ccccc1NS(=O)(=O)c1cc(C(=O)NCc2ccco2)ccc1C | -19.3%
O=C(O)c1cc(=O)c2ccccc2[nH]1 | 4.2%&-7.7%
Cc1cc(C(F)(F)F)n2nc(C(=O)O)c(Cl)c2n1 | 3.9%
COc1ccc(NC(=O)C2CCN(C(=O)NC3CCCCC3)CC2)c(OC)c1 | 36.4%
COc1cc(NC(=O)CN(c2cc(C)cc(C)c2)S(=O)(=O)c2c(C)noc2C)cc(OC)c1 | 15.2%
Cc1cccn2c(=O)c3cc(C(=O)NC(C)C)c(=N)n(Cc4ccncc4)c3nc12 | 6.3%
Cc1cc(=O)[nH]c(SCC(=O)Nc2ccc(Br)cn2)n1 | 0.4%
CCOC(=O)CN1CC23C=CC(O2)C(C(=O)Nc2ccc(C(C)=O)cc2)C3C1=O (stereo unspecified) | -4.9%
COc1cccc(-c2ccc3ncnc(N(C)Cc4ccco4)c3c2)c1 | 6.31µM*
C[C@H]1[C@H](C)CC[C@]2(C(=O)O)CC[C@]3(C)C(=CC[C@@H]4[C@]5(C)C[C@H](O)[C@@H](O)[C@@](C)(CO)[C@@H]5[C@H](O)C[C@@]43C)[C@H]12 | 39.6%[5.75 µM]
CCCN1C2CCCC1CC(NC(=O)c1cc(OC)c(OC)c(OC)c1)C2 (stereo unspecified) | -13.0%
CSc1c(C#N)c(N)c(C#N)c2c1COC(C)(C)C2 | -12.3%
Cc1ccc(N(C(=O)Cn2nnc3ccccc32)C(C(=O)NC2CCCCC2)c2cn(C)nc2C)cc1 (stereo unspecified) | 90.8%
CN(CCc1ccc(Cl)c(Cl)c1)[C@H]1CCCC[C@H]1N1CCCC1 | 42.1%
CCCCC(=O)NC(Nc1cc(C)ccn1)(C(=O)OCC)C(F)(F)F (stereo unspecified) | 13.7%
O=C(NCC1CCCO1)C1CCN(C(=O)c2ccc(Br)cc2)CC1 (stereo unspecified) | 20.5%
O=C(CSc1nnc(-c2cccnc2)n1C1CCCCC1)NC1CCCCC1 | 44.2%
CCOC(=O)C1CCN(CC(=O)N2C(C)CCCC2C)CC1 (stereo unspecified) | 17.2%
COC(=O)C(C)NC(=O)C12CC3CC(CC(C3)C1)C2 (stereo unspecified) | -4.0%
O=C(c1cc(Cl)cc(Cl)c1)N1CCOCC1 | -6.1%
COCCCNC(=O)COc1ccc(S(=O)(=O)Nc2ccccc2)cc1 | 27.8%
CC(C)=CCc1c2c(c3occ(-c4ccc(O)c(O)c4)c(=O)c3c1O)C=CC(C)(C)O2 | 3.98µM*[single pt active]
Cn1c(=O)c2cc(S(=O)(=O)NCCC(=O)NCCc3ccc(Cl)cc3)ccc2n(C)c1=O | 55.0%
COc1ccc(CCn2c(NCCCN3CCOCC3)nc3c2c(=O)[nH]c(=O)n3C)cc1 | 11.7%
COc1cccc(Cn2c(=O)c(-c3cccs3)nc3cnc(Nc4cccc(OC)c4)nc32)c1 | -1.2%
CC(C)NS(=O)(=O)c1ccc(CCC(=O)NCc2ccco2)cc1 | 8.4%
COc1ccc(OC)c(C(C)NC(=O)c2ccco2)c1 (stereo unspecified) | 10.9%
Cc1ccc2c(c1)CC1(CN2C)C(=O)NC(=O)N(CCC2=CCCCC2)C1=O (stereo unspecified) | 5.4%
COc1ccc(C)cc1S(=O)(=O)N1CCN(Cc2ccccc2)CC1 | 61.8%
COc1nc(-c2ccccc2)ccc1-c1noc(-c2cccs2)n1 | -3.1%

Already shown: an excerpt of the list.
SMILES | AmpC inh no det
COC(=O)C(C)NC(=O)C12CC3CC(CC(C3)C1)C2 (stereo unspecified) | -4.0%
O=C(c1cc(Cl)cc(Cl)c1)N1CCOCC1 | -6.1%
COCCCNC(=O)COc1ccc(S(=O)(=O)Nc2ccccc2)cc1 | 27.8%
CC(C)=CCc1c2c(c3occ(-c4ccc(O)c(O)c4)c(=O)c3c1O)C=CC(C)(C)O2 | 3.98µM*[single pt active]
Cn1c(=O)c2cc(S(=O)(=O)NCCC(=O)NCCc3ccc(Cl)cc3)ccc2n(C)c1=O | 55.0%

Remaining list, next part.
SMILES | AmpC inh no det
COC(=O)[C@@H](NC(=O)NCc1ccccc1Cl)C(C)C | 5.4%
CC(Oc1ccccc1)C(=O)NC1CC(C)(C)NC(C)(C)C1 (stereo unspecified) | 2.6%
O=c1oc(-c2cccs2)nc2sc3c(c12)CCC3 | -3.4%
CN1CC=C2C(C#N)=C(N)C(C#N)(C#N)C(CCc3ccccc3)C2C1 (stereo unspecified) | -5.2%
CCn1c(C(C#N)/C(=N\S(=O)(=O)c2cccs2)c2ccccc2)nc2ccccc21 (stereo unspecified) | -13.4%
CC1(C)CC(=O)C=C(NCc2cccnc2)C1 | -5.9%
CCN(CC)C(=O)c1sc2nc(-c3ccc(OC)cc3)cn2c1C | 57.8%
COCCNC(=O)Cn1nc(C)c2ccccc2c1=O | -6.1%
COc1ccc(CCNC(=O)CC2COc3ccccc3O2)cc1OC (stereo unspecified) | 28.5%
COCCCNC(=O)CSC1=Nc2ccccc2C2=NC(CC(=O)NCc3ccccc3)C(=O)N12 (stereo unspecified) | 7.6%
COC(=O)c1c(NC(=O)c2nc3ncccn3n2)sc(C(=O)N(C)C)c1C | 7.6%
CCOC(=O)c1c(C)[nH]c2cc(Br)c(OC)cc12 | -2.3%
COc1ccc(S(=O)(=O)NCc2ccccn2)c(Cl)c1Cl | 3.7%
CCSc1nnc(-c2ccccc2NC(=O)CC)c(=O)[nH]1 | 0.0%
O=C(c1ccncc1)N1CCC2(CC1)CCN(c1ncccn1)CC2 | 15.2%
COc1ccc(OCC(=O)Nc2ccc(S(=O)(=O)Nc3cc(C)nc(C)n3)cc2)cc1 | -7.6%
COC(=O)c1ccc(NC(=O)CSc2nncn2C)cc1 | -9.2%
Cc1nnc2c(-c3ccccc3)nc3ccccc3n12 | 1.1%
O=C(NCc1ccccc1)N1CCC(n2cnc3cc(F)ccc32)CC1 | 21.4%
CC1CCCC(NC(=O)C2CCN(S(=O)(=O)N3CCC4(CC3)OCCO4)CC2)C1C (stereo unspecified) | 48.8%
CCOC(=O)C1CCN(C(=O)CSc2cc(=O)n(CC)c3ccccc23)CC1 | 108.6%
OCc1ccccc1OCCOc1ccc(Cl)c2cccnc12 | 57.3%
CCc1sc(C(=O)NC)cc1Br | -4.0%
CCOC(=O)c1ccc(NC(=O)NC(C)C2CCCO2)cc1 (stereo unspecified) | 0.7%
COc1ccc(S(=O)(=O)N2CCCN(CC(=O)C(C)(C)C)CC2)cc1 | 42.7%
COc1ccc(S(=O)(=O)N2CCCCCC2)cc1C(=O)OCc1c(C)noc1C | 77.0%
CC(C)[N+]1(C)[C@@H]2CC[C@H]1CC(OC(=O)[C@@H](CO)c1ccccc1)C2 (stereo partly specified) | 2.7%
COc1ccc(S(=O)(=O)N2CCN(C3CCN(Cc4ccccc4)CC3)CC2)cc1 | 10.2%
CC1CCN(C(=O)c2ccc(COc3ccccc3Cl)o2)CC1 | 66.1%
COC(=O)c1cc(NC(=O)CN(c2ccc3c(c2)OCO3)S(C)(=O)=O)ccc1Cl | 2.2%

Two entries from above, as labelled records:
COc1ccc(S(=O)(=O)N2CCCN(CC(=O)C(C)(C)C)CC2)cc1
  AmpC inh no det = 42.7%
COC(=O)c1ccc(NC(=O)CSc2nncn2C)cc1
  AmpC inh no det = -9.2%

Continuation.
SMILES | AmpC inh no det
O=C(O)[C@@H]1[C@@H](C(=O)NCc2cccnc2)[C@@H]2C=C[C@@H]1O2 | 13.6%[5.75 µM]
C=CCn1c(N)c(C(=O)OCC(C)C)c2nc3ccccc3nc21 | 22.7%
O=C(CC1(O)C(=O)Nc2ccccc21)c1ccc(-n2cccc2)cc1 (stereo unspecified) | 4.4%
Cn1cc(C(=O)NCCN2CCN(c3cccc(Cl)c3)CC2)c2c3ccccc3n(C)c2c1=O | 114.3%
C=CCSc1nc2c(c(=O)[nH]c(=O)n2C)n1Cc1ccc(C)cc1 | -0.9%
COC(=O)c1ccc(NC(=O)CN2C(=O)CSC2=O)cc1 | 1.5%
COC(=O)N1[C@H](C)C=C[C@]1(Cc1ccccc1)C(=O)OC | 3.5%
COC(=O)C1=C(N)N(c2ccc(F)cc2)C2=C(C(=O)CCC2)C1c1ccc2c(c1)OCO2 (stereo unspecified) | 32.9%
Cc1cccc(Nc2nc(-c3ccccn3)cs2)n1 | 45.0%
COc1cccc(NS(=O)(=O)c2ccc3c(c2)n(C)c(=O)c(=O)n3C)c1 | -3.6%
Cc1ccc(S(=O)(=O)N2CCN(C(=O)CCC(=O)N3CCc4ccccc43)CC2)cc1 | 87.4%
CCCn1c(C)cc(=O)c2cc(NC(=O)c3cnccn3)ccc21 | 68.2%
O=C(COC(=O)c1cc2ccccc2o1)c1ccccc1 | -4.4%
CCOC(=O)c1c(NC(=O)CSc2nnc(Cc3csc(N)n3)n2C)sc(C)c1C | 72.2%
Cc1cccc(N2CCN(C(=O)C3CCCN(S(=O)(=O)c4c(C)noc4C)C3)CC2)c1C (stereo unspecified) | 131.9%
O=C(CN(Cc1ccccc1)C(=O)CCC(=O)Nc1ccccn1)NCc1ccco1 | 22.2%
CCNc1ncc2nc(CCc3ccccc3)c(=O)n(C)c2n1 | 14.4%
Cc1ccc(CN2C(=O)CCC2C(=O)NCc2ccco2)cc1 (stereo unspecified) | 22.7%
Cc1cc(C(=O)CSc2nnc(-c3ccccc3)n2-c2ccccc2)c(C)n1-c1ncn[nH]1 | 117.3%
CSCCC(NC(=O)CCN1C(=O)c2ccccc2C1=O)C(=O)O (stereo unspecified) | -0.9%
Cc1cc(C)nc(-n2nc(C)cc2NC(=O)c2cc3ccccc3oc2=O)n1 | 4.8%
CN1CCC[C@H](C(=O)OCC(=O)[C@]2(O)CC[C@@H]3[C@H]4CCC5=CC(=O)CC[C@@]5(C)[C@H]4[C@@H](O)C[C@]32C)C1 | 34.0%[5.75 µM]
COc1cccc(C(=O)NC2(C(F)(F)F)N=C3SCCN3C2=O)c1 (stereo unspecified) | -12.7%
O=C(CSc1nnc2c(Cl)cc(C(F)(F)F)cn12)Nc1ccc2c(c1)OCO2 | 33.0%
CCCCn1c(SCC(=O)OCC)nc2c1c(=O)[nH]c(=O)n2C | 14.4%
Oc1cccc(Nc2ncnc3ccccc23)c1 | 5.0%
N=C(N)c1c(O)n(C2CCCCC2)c(=O)n(C2CCCCC2)c1=O | 17.5%
COc1ccccc1NC(=O)CSc1nnc(Cn2c(=O)sc3ccccc32)n1C | 3.98µM*[single pt active]
Cn1nnnc1Sc1ncnc2scc(-c3ccccc3)c12 | ?
O=C(Cn1ccc2ccccc2c1=O)NCCC(=O)N1CCN(c2cccc(C(F)(F)F)c2)CC1 | 115.1%

Some values from above:
COc1ccccc1NC(=O)CSc1nnc(Cn2c(=O)sc3ccccc32)n1C @ AmpC inh no det: 3.98µM*[single pt active]
CCCCn1c(SCC(=O)OCC)nc2c1c(=O)[nH]c(=O)n2C @ AmpC inh no det: 14.4%

Continuation.
SMILES | AmpC inh no det
S[C@@H]1CCCN(Cc2ccccc2)C1 | 7.1%[5.75 µM]
C=C1C2(C(=O)NCc3ccco3)CCC(C2)C1(C)C (stereo unspecified) | -7.1%
CCCn1c(NC(=O)C2CCN(S(=O)(=O)c3cccs3)CC2)nc2ccccc21 | 20.4%
CCNc1nc(NC(C)C)nc(OCCNS(=O)(=O)c2cc(C)ccc2C)n1 | -2.5%
